ALR inh: blocks human ALR sulfhydryl oxidase activity; inhibition, % (no concentration beside the values); purified ALR, DTT oxidation, H2O2 HRP-luminol luminescence; P55789; hit rate 3.8% among 290,000;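 active = mean and each replicate at 75% or more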;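 note: stock transfer was 7.5 nL into about 7.5 µL; 0% = neutral wells and 100% = wells with inactivated enzyme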
Target sequence (P55789 whole entry, looked up): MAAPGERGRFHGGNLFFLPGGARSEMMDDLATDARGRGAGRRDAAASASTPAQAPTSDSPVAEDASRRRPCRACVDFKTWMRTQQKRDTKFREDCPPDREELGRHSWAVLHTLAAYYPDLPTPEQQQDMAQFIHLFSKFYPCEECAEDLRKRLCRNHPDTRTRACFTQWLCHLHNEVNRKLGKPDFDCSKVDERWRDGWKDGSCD
UCH37 DUB inh: inhibitors of human deubiquitinating enzyme UCH37 | Q9Y5K5 | purified proteasome/UCH37, Ub-AMC cleavage fluorescence | inhibition, % (concentration not given with the values) | hit rate 0.33% among 330,000 | AID 588478;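 active = mean of two replicates above 20%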;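 note: 0% = compound-free wells with enzyme and 100% = wells lacking proteasome; stock transfer was 100 nL into about 20 µL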
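System: Proteasome-associated human UCH37 deubiquitinase; Input: 0.15 nM proteasome in added enzyme buffer; Also added: Ub-AMC substrate from 1 µM stock; Incubation: 30 min compound-proteasome preincubation then 25 min substrate reaction, room temperature; Detection: fluorescence, ex 355 nm, em 460 nm; Read-out: % inhibition of Ub-AMC cleavage fluorescence; Benchmarks: no-proteasome and no-compound wells.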
FGF22 binding: FGF22 (human) thermal shift binding. recombinant FGF22 thermal shift, SYPRO orange fluorescence; percent of sucrose octasulfate shift, DMSO zero. hit rate 1.5% among 340,000. calls only at 9.99 µM. Q9HCT0;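 active = melting point raised past a set limit in the mean and every replicate; three in four hits are not shown here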
Target sequence (Q9HCT0 whole entry, looked up): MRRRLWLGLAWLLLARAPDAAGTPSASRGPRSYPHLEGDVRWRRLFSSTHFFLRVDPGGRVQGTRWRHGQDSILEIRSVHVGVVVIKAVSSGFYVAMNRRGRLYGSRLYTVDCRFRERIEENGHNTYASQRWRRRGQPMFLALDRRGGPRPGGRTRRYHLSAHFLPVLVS
Ecoli growth: E. coli growth inhibition; hit rate 0.21% among 330,000; OD600 absorbance (concentration not given with the values); Escherichia coli growth, OD600, 23 h; active compounds read low;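 active = OD600 absorbance below the run mean of sample wells minus 3.6 SD, in any replicate, cut at about 0.56 in these data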;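 note: stock transfer was 300 nL into about 60 µL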
B2AR ag: agonists of human beta-2 adrenergic receptor inducing internalization; P07550; Am2.2-beta2AR cells, FAP receptor internalization, flow cytometry; reference of the scale not given here; response, % (test concentration not listed); hit rate 0.43% among 340,000; AID 504454;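 active = response above a set limit, near 3 SD of response in nonfluorescent compounds, cut at about 42% in these data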;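 note: stock transfer was 100 nL into about 11 µL; a reference agonist was the positive control; negative values mostly stem from fluorescent compounds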
Target sequence (P07550 whole entry, looked up): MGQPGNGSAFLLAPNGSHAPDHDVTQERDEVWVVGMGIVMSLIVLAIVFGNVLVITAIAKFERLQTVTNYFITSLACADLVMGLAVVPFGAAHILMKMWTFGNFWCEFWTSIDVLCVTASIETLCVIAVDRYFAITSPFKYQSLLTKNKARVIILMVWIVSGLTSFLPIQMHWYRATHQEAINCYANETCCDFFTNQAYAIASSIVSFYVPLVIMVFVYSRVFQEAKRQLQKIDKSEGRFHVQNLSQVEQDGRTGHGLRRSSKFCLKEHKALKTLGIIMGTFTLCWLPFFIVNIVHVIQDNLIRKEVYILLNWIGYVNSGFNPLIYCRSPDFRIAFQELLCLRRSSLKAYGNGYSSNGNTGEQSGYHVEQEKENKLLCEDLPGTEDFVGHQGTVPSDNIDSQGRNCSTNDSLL
HNF4A DNA FP: change in binding of human HNF4 alpha to DNA; HNF4a-FITC DNA binding, fluorescence polarization, 1 h; AID 1224865; hit rate 0.3% among 360,000; activity change, % at 10 µM; P41235; in the data active = activity change above about 30%, passing the limit was not always enough;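 note: controls were the assay level and a saturating level of protein; the project sought stronger binding though the title names inhibitors; some compounds called inactive have numbers as strong as hits; positive values seem to mean higher polarization but the record does not say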
LANA-H2B inh: blocks KSHV LANA binding to histone H2A/H2B; hit rate 0.6% among 320,000; Q9QR71; inhibition, % (no concentration beside the values); AID 2629; cell-free LANA-H2A/H2B peptide, fluorescence polarization; in the data active = inhibition mostly above about 10%, no sharp cut-off; inactive = mostly below about 6.7%;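 note: stock transfer was 7.5 nL into about 10 µL; 0% = median of vehicle wells and 100% = median of positive control wells; one replicate is shown; the record names a cut of 25% in any replicate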
* hit, by the source's call; i = inactive; . = not tested or not shown; + = active, no number.

Start of the data: the first 4 compounds (preview)
Under each structure – ALR inh, UCH37 DUB inh, FGF22 binding, Ecoli growth, B2AR ag, HNF4A DNA FP, LANA-H2B inh
COc1cc(NC(=O)CN2C(=O)NC(C)(CC(C)C)C2=O)cc(OC)c1 (stereo unspecified)
 : -8, -1.3, ., 0.69, 4, 4.3, 2.5
COc1ccc(-c2[nH]ncc2-c2cscn2)c(O)c1
 : 4, 1.2, i, 0.74, 3, -1.1, -1.8
Cc1onc(-c2ccccc2)c1C(=O)Nc1ccc(S(=O)(=O)NC2=NCCCCC2)cc1
 : 2, 0.0, ., 0.71, 4, 5.8, -0.7
COC(=O)c1ccc(C)c(NC(=O)c2ccc(Cn3cc([N+](=O)[O-])cn3)o2)c1
 : -3, -5.1, i, 0.69, 5, 0.8, -3.8

All compounds of this part, repeating the preview:
Under each structure – ALR inh, UCH37 DUB inh, FGF22 binding, Ecoli growth, B2AR ag, HNF4A DNA FP, LANA-H2B inh
COc1cc(NC(=O)CN2C(=O)NC(C)(CC(C)C)C2=O)cc(OC)c1 (stereo unspecified)
 : -8, -1.3, ., 0.69, 4, 4.3, 2.5
COc1ccc(-c2[nH]ncc2-c2cscn2)c(O)c1
 : 4, 1.2, i, 0.74, 3, -1.1, -1.8
Cc1onc(-c2ccccc2)c1C(=O)Nc1ccc(S(=O)(=O)NC2=NCCCCC2)cc1
 : 2, 0.0, ., 0.71, 4, 5.8, -0.7
COC(=O)c1ccc(C)c(NC(=O)c2ccc(Cn3cc([N+](=O)[O-])cn3)o2)c1
 : -3, -5.1, i, 0.69, 5, 0.8, -3.8
NC(=O)C1CCCN1S(=O)(=O)c1ccc2ccccc2c1 (stereo unspecified)
 : 4, 1.9, i, 0.67, -8, 3.4, 1.8
Cc1nc2ccc(NC(=O)N3CCCCC3)cc2s1
 : -12, 1.7, ., 0.73, -8, -1.5, -2.2
COc1ccccc1CC(=O)N1CCN(c2ccccc2)CC1
 : 74, 4.3, i, 0.69, -3, 0.5, -3.6
CCN1CCN(c2c(Cl)cccc2NC(=O)c2ccc(Br)o2)CC1
 : -2, 5.1, ., 0.72, -16, -0.3, -0.7
Cc1ccc(S(=O)(=O)N/N=c2\sc3ccccc3n2C)cc1
 : -5, ., ., ., 1, -2.2, 0.1
Cc1ccc(C2CC(=O)C=C(NCc3ccccc3)C2)cc1 (stereo unspecified)
 : -1, -2.3, i, 0.7, -5, 1.0, 4.6
COc1ccc(C(=O)COC(=O)Cn2[nH]c(=O)c3ccccc3c2=O)c(OC)c1
 : 0, ., i, ., 22, 8.7, 3.1
CCOC(=O)c1cnc(SC2CC(=O)N(c3ccccc3)C2=O)nc1N (stereo unspecified)
 : 0, 1.2, ., 0.68, -4, 0.2, 2.9
Cc1ccccc1CCNC(=O)C1CCC(=O)N(Cc2ccc(Cl)cc2)C1 (stereo unspecified)
 : -3, -2.7, i, 0.7, -3, -1.2, 5.3
Cc1cc(NC(=O)COC(=O)CSCc2ccc(Cl)c(Cl)c2)no1
 : ., 0.5, i, 0.67, 11, 0.8, -2.7
CCCN(CC(=O)Nc1ccccc1OC)C(=O)c1ccc2ncsc2c1
 : -3, 3.6, i, 0.69, 2, 3.7, 1.3
COc1cccc(NC(=O)CN(C)C(=O)CCC(=O)c2cc(C)sc2C)c1
 : ., 0.1, i, 0.65, -1, 2.5, .
CCN(CC)CCN1C(=O)C(=O)/C(=C(/O)c2ccc(OC)cc2)C1c1ccco1 (stereo unspecified)
 : -3, 5.1, ., 0.68, -6, 4.8, -0.5
Cc1cccc(NC(=O)C(c2ccccc2Cl)N2CCOCC2)c1 (stereo unspecified)
 : -4, 4.4, i, 0.68, 24, 0.4, -6.3
COc1ccccc1-c1nnc(SC(C)C(=O)O)n1-c1ccccc1 (stereo unspecified)
 : -1, 1.4, i, 0.63, 0, 0.9, -2.3
O=C(COc1cccc2cccnc12)Nc1ccccc1
 : 0, -2.8, i, 0.71, 13, 0.3, 1.9
O=C(NC(=S)NCc1ccc(-c2nc3ccccc3s2)cc1)c1ccco1
 : -7, -1.6, ., 0.69, 21, 1.5, -1.4
CCCNC(=O)c1[nH]c(C)c(C(=O)OCC)c1C
 : 0, -0.9, ., 0.68, ., ., 1.6
CN(C)C(=O)CN1c2cccc3cccc(c23)S1(=O)=O
 : -24, -97, i, 0.68, 2, -7.2, 0.1
Cc1ccc(NC(=O)Cn2c([N+](=O)[O-])cnc2C)cc1Cl
 : -15, 2.4, i, 0.68, 7, 0.1, -4.9
O=C(Nc1ccon1)c1ccc(S(=O)(=O)N2CCOCC2)cc1
 : ., 1.3, i, 0.6, -12, 4.9, -1.6
Fc1ccc(C2CC(c3ccc(F)cc3)n3ncnc3N2)cc1 (stereo unspecified)
 : 0, 2.2, ., 0.73, 1, -0.4, 1.7
CCOc1ccc(Nc2nc(N)c3ccccc3n2)cc1
 : 36, ., i, ., -14, 60*, -3.0
O=C(COC(=O)c1ccco1)Nc1nc2c(F)c(F)c(F)cc2s1
 : 3, 2.5, i, 0.65, 6, 15, 6.7
O=C(Nc1ccccc1N1CCCCC1)c1cccc(Cl)c1
 : 4, 0.8, i, 0.67, -14, -2.5, 2.8
c1cnn(-c2cc(N3CCOCC3)ncn2)c1
 : -3, 0.5, ., 0.67, -7, 3.1, -0.2
COc1ccc(C(=O)OCCNC(=O)c2ccncc2)cc1OC
 : ., 2.3, i, 0.64, 7, 3.7, .
N#CCc1nnc2n1-c1ccccc1CCC2
 : -1, -0.8, ., 0.67, 2, -1.1, -1.5
CN(C(=O)CSc1nnc(-c2c[nH]c3ccccc23)n1C1CC1)C1CCS(=O)(=O)C1 (stereo unspecified)
 : ., 2.2, i, 0.7, 0, 0.0, .
NC(=O)C1=C[C@@H](c2csc3ccccc23)C[C@@H](OCCCCO)O1
 : -29, 4.6, i, ., -8, -4.3, 5.6
O=C(O)c1cccc(NS(=O)(=O)c2ccc(Oc3ccc(S(=O)(=O)Nc4cccc(C(=O)O)c4)cc3)cc2)c1
 : 5, 5.5, ., 0.64, 3, 1.3, -0.4
CCN(CC)CCCN(C(=O)c1ccc(Br)cc1)c1nc(-c2ccc(OC)cc2)cs1
 : -12, 3.9, i, 0.67, 12, 3.1, 6.5
O=C(COC(=O)Cc1c(F)cccc1Cl)Nc1nnc(-c2ccccc2)o1
 : 12, 2.5, i, 0.7, -1, -1.6, -6.3
CCC(C)C(NC(=O)C(C)NC(=O)CNC(=O)OC(C)(C)C)C(N)=O (stereo unspecified)
 : 0, 3.8, ., 0.66, 1, 0.2, 2.3
O=C(COC(=O)CCc1c[nH]c2ccccc12)NCc1ccccc1
 : 43, 0.7, i, 0.72, 1, -0.6, 1.0
COc1ccc(C2=C/C(=C\c3cccc(OC(C)=O)c3)C(=O)O2)cc1
 : 22, -8.6, i, 0.73, 11, 5.0, -2.9
CCS(=O)(=O)n1nc(-c2ccc(Cl)cc2)nc1N
 : -2, 4.4, i, 0.73, 8, -1.3, -4.4
Clc1cccc(Cl)c1Cn1cnc2c(N3CCCCCC3)ncnc21
 : -1, 2.0, ., 0.69, 8, -2.4, -1.4
Cc1ccc(-n2c(C)csc2=N)cc1
 : 55, 4.1, ., 0.68, 12, 5.9, -8.5
CCOc1ccc(C(=O)n2cc(C(=O)OC)c3ccccc32)cc1
 : -8, 5.9, i, 0.65, 10, 0.5, 3.1
CCN(CC)CCC(O)(c1ccc2c(c1)OCO2)c1cc(OC)c(OC)c(OC)c1 (stereo unspecified)
 : ., 2.3, i, 0.68, -5, 8.3, .
O=S(=O)(NCCSCc1ccc(Cl)cc1Cl)c1ccc2c(c1)OCCO2
 : -8, 4.2, ., 0.75, 5, -2.9, -3.0
Nc1cc(Cl)ccc1C(=O)OCC(=O)N1CCOCC1
 : -8, -193, i, 0.72, -1, 4.8, -1.3
Cc1ncc(CO)c(/C=N/NC(=S)Nc2ccc(Cl)c(Cl)c2)c1O
 : 18, ., +, ., 5, 8.0, -0.7
CCCCCC(=O)Nc1cccc(-c2nc3ncccc3o2)c1
 : -5, -18, i, 0.65, -16, 4.1, 3.2
COC(=O)c1cc(Br)c(=O)n(CCc2ccccc2)c1
 : -3, -3.3, ., 0.73, -9, 3.3, 2.8
CCn1c(SCC(=O)N2CCCc3ccccc32)nc2c1c(=O)n(C)c(=O)n2C
 : -7, -0.3, ., 0.72, -5, 2.0, 3.1
O=C(COC(=O)/C=C/c1cccc(Cl)c1)Nc1cccc(S(=O)(=O)NC2=NCCC2)c1
 : 0, 1.0, i, 0.65, -4, 2.9, -0.7
Cc1onc(-c2c(F)cccc2Cl)c1C(=O)N1CCN(c2ncc(Br)cn2)CC1
 : ., -0.5, i, 0.72, -2, -4.4, 0.3
O=C(C1CCCN1S(=O)(=O)c1ccc(Cl)c(Cl)c1)N1CCCCC1 (stereo unspecified)
 : -4, 3.0, ., 0.75, -9, 4.0, -0.6
Cc1ccc(C(CNS(=O)(=O)c2ccc(C)cc2)N2CCN(C)CC2)cc1 (stereo unspecified)
 : ., 4.8, i, 0.7, 9, 0.4, 0.7
CN(Cc1cccc(F)c1)C(=O)CNS(=O)(=O)c1ccc2ccccc2c1
 : 0, 3.5, i, 0.67, -8, -0.2, 1.0
CCSc1nc(C)c(C(C)=O)cc1C#N
 : -3, -1.3, ., 0.62, 0, -1.9, -3.0
Cn1nccc1C(=O)Oc1cccc(/C=N/NC(=O)c2ccccc2O)c1
 : 4, ., i, ., 5, 2.0, 12
O=C(N/N=C/c1ccc(-c2ccccc2Cl)o1)c1ccccc1
 : -2, ., ., ., 0, -0.6, 2.2
O=C(O)CCn1c(=O)oc2cc(S(=O)(=O)N3CCCC3)ccc21
 : -16, 0.4, i, 0.67, -4, -0.2, -0.3

The listing continues:
Under each structure – ALR inh, UCH37 DUB inh, FGF22 binding, Ecoli growth, B2AR ag, HNF4A DNA FP, LANA-H2B inh
O=C(CC12CC3CC(CC(C3)C1)C2)Nc1c(F)cccc1F
 : ., 1.7, ., 0.68, -10, 0.3, 4.2
CN(C)/C=C(/C(=O)c1ccc(Cl)cc1)n1cncn1
 : 0, 1.3, i, 0.66, 1, 0.5, -7.0
COc1ccc(CNC(=O)CCS(=O)(=O)c2ccc3c(c2)CC(C)N3C(=O)C2CC2)cc1 (stereo unspecified)
 : -5, -1.2, i, 0.66, -25, 1.4, 0.2
CC(=O)CCC(=O)NC1CCCc2c1cnn2-c1ccc(C(C)(C)C)cc1 (stereo unspecified)
 : -3, 6.3, i, 0.68, 2, 0.8, 1.2
CCNC(=O)N1CCNC(=O)C1CC(=O)OC (stereo unspecified)
 : -9, 0.5, ., 0.69, 4, 0.6, -3.1
CCOc1ccc(N(C)S(=O)(=O)c2ccc3[nH]cc(C(=O)NCC(OC)OC)c(=O)c3c2)cc1
 : ., -1.5, i, 0.68, 8, -0.9, 0.8
CCOC(=O)C(C)On1c(SC(C)C(=O)OCC)nc2ccccc2c1=O (stereo unspecified)
 : -10, 1.0, ., 0.69, 0, 0.7, -4.6
CN(C)C(=O)c1c2c(nc3ccccc13)-c1ccccc1CC2
 : -34, -33, ., 0.71, 1, 1.0, 3.2

Bioassay records: PubChem BioAssay, several laboratories

Some of the compounds tested; rates above refer to the full screens.
